YopH inh: blocks Yersinia enterocolitica YopH tyrosine phosphatase; fluorescence Ex485/Em525; AID 898; inhibition, %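 (about 10 µM by stock and volumes)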; 0.16% of 140,000 active;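 active = inhibition of 50% or more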;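 also: controls were vehicle for no effect and minimum signal wells for full effect; inactives centre near -20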
Mtb bLac sens: beta-lactam sensitization of Mtb H37Rv; M. tuberculosis H37Rv growth with meropenem, percent inhibition; hits of this screen are not shown here; inhibition, % at 25 µM; 0.27% of 330,000 active; AID 434955;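 active = about 74% or more and at least 40 points above the plate without the antibiotic, then above 30% in a dose series; inconclusive = first-round hits that could not be retested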;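 also: growth measured after seven days incubation then overnight dye step; 0% = bacteria only wells and 100% = bacteria with antibiotic; twin plates without the antibiotic show which effects depend on it; some results filed as inactive read as strong as hits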
Mtb H37Rv: M. tuberculosis H37Rv growth inhibitors, H37Rv strain (AID 1626); inhibition, % at 10 µM, or IC50 in µM where a hit was titrated; 0.95% of 220,000 active; M. tuberculosis H37Rv growth inhibition; higher % means a stronger effect;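 active = confirmed in a dose series; inconclusive = inhibition above 80% but not taken into the dose series; inactive = below 80% or under 30% at every dose of the series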;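 also: bacteria incubated seven days before Alamar blue readout; 0% = bacteria only wells and 100% = bacteria with antibiotic wells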
Arbovirus anti: arbovirus infection inhibition; arbovirus infection cell-based antiviral screen; inhibition, % at 10 µM; 0.37% of 200,000 active; AID 1251;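 active = inhibition from about 30%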;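 also: bluetongue infection of BSR cells; cell survival read as ATP light after 72 h; 0% = infected wells without compound and 100% = uninfected wells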
RecA intein inh: inhibitors of M. tuberculosis RecA intein splicing | P9WHJ3 | cell-free RecA intein splicing, fluorescence | inhibition, %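 (about 9 µM by stock and volumes)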 | 0.75% of 290,000 active | AID 2221; in the data active = inhibition above about 30%; inconclusive = no clear call, values can overlap the other calls;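 also: 0% = vehicle wells and 100% = reference inhibitor control wells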
Target sequence (P9WHJ3 whole entry, looked up): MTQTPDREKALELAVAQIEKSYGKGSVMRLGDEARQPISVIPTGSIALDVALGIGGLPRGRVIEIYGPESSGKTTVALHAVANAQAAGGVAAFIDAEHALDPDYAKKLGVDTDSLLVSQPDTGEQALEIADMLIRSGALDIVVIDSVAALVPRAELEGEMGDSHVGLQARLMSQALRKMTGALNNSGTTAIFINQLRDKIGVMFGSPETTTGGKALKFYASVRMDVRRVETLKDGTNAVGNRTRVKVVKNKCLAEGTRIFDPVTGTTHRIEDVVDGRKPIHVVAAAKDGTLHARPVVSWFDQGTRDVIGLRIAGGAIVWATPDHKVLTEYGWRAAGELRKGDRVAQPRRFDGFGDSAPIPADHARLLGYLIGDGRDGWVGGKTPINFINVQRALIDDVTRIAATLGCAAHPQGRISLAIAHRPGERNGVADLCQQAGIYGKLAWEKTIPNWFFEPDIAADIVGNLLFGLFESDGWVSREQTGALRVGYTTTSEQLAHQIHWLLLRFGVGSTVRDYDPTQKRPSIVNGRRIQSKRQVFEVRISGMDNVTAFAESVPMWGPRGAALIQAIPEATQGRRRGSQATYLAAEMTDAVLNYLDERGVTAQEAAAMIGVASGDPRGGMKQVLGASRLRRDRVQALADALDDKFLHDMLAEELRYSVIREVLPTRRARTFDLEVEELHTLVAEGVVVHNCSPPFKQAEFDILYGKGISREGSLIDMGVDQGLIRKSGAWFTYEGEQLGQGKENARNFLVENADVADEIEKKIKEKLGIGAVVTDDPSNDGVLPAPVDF
Arbovirus anti repeat: second read-out of Arbovirus anti, no call of its own (marks repeat the call); inhibition, %; measured here: 10K subset replicate screen; many hits read low in the repeat;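 first of two repeat runs on a subset; 0% = infected and 100% = uninfected wells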
Active calls of the source: *; ? = inconclusive; . = no result given. A portion of the library; the hit share may differ from the screen's.

SMILES	YopH inh	Mtb bLac sens	Mtb H37Rv	Arbovirus anti	RecA intein inh	others
COc1cccc(CN2CCN(C3CCN(c4cccc(C)c4C)CC3)CC2CCO)c1 (centres undefined)	.	-2	-2%	-33	-2.6
O=C(COc1nsnc1N1CCOCC1)Nc1cccc(Cl)c1	.	1	.	.	3.9
O=C(/C=C/c1c(F)cccc1Cl)N1CCc2ccccc2C1	.	-3	.	.	9.0
Cc1cc(N)n(-c2ncnc3scc(-c4ccccc4)c23)n1	-22	-6	.	0	-2.6
CCN(Cc1ccccc1)C(=O)c1c[nH]c2ccc(S(=O)(=O)N(C)CCC#N)cc2c1=O	-28	-6	-4%	1	0.5
O=S(=O)(c1ccccc1)c1cnc2ccccc2c1	.	-3	.	.	-4.0
CN(c1ccccc1C(=O)N1CCc2ccccc2C1)S(C)(=O)=O	-14	-23	3%	2	7.1
Cc1ccc(Nc2c(-c3ccc(N4CCOCC4)cc3)nc3ncccn23)cc1C	-17	5	.	-11	-1.6
CC1CCc2sc(C(=O)N(C)CC(=O)Nc3cccc(F)c3)cc2C1 (centres undefined)	.	-9	.	.	0.7
CC(=O)N/C(=N\OCc1ccccc1Cl)c1nonc1NC(C)=O	-18	-3	-6%	1	-1.2
Cc1cc(C)nc(N2N=C(C(F)(F)F)CC2=O)n1	.	-9	-5%	.	-0.1
Brc1cccc(CSc2nnc(-c3ccncc3)o2)c1	.	9	10%	-25	-0.6
COc1ccc(N2CCN(C(=O)[C@H](C)NC(=O)c3ccccc3Cl)CC2)cc1	.	-7	.	.	-2.5
CCN(CC)CC(=O)Nc1sc(C)cc1C(=O)c1ccc(C)cc1	.	1	.	.	-1.0
CCC1CSC(Nc2ccc(C(=O)/C=C/c3ccc(OC)c(OC)c3)cc2)=N1 (centres undefined)	-15	98	45%	-32	7.3
CNC(=O)c1ccc(CNC(=O)OCC(F)(F)F)cc1	-34	-7	-5%	7	0.5
O=C(Cc1ccccc1)Nc1ccc(N2CCN(Cc3ccccc3F)CC2)cc1	-17	8	-6%	4	2.1
COc1ccc(N2CCN(CCC(N)=O)CC2)cc1	-25	-1	-6%	1	-7.7
COCC(=O)OCC(=O)Nc1cc(C(C)(C)C)nn1-c1ccccc1	-18	1	-4%	1	-2.4
O=C1C2C3C=CC(C4CC34)C2C(=O)N1CCc1ccccc1 (centres undefined)	30	-1	4%	-5	-1.4
S=c1[nH]nc(CCc2ccccc2)n1-c1ccccc1	-26	6	2%	6	2.1
Cc1[nH]c(C(=O)O)c(C)c1C(=O)OC(C)C	-10	3	-3%	5	-1.9
CCOc1ccc(N(CC(=O)O)S(=O)(=O)c2ccc(OC)c(OC)c2)cc1	-36	-11	-12%	3	-1.3	Arbovirus anti repeat=1
CCN(CC)S(=O)(=O)c1ccc(N=Cc2c(C)c(C#N)c(=O)n(C)c2O)cc1	-22	7	-10%	-1	-3.2
COc1ccc(C(=O)n2nnc3ccccc32)cc1Br	-34	1	-7%	10	35*
The results go on.
SMILES	YopH inh	Mtb bLac sens	Mtb H37Rv	Arbovirus anti	RecA intein inh	others
O=C(C1CC(=O)N(C2CCCC2)C1)N1CCC2(CC1)OCCO2 (centres undefined)	7	-12	-6%	13	-1.1
COc1cccc(C(=O)CN2C(=O)C(C)(C)Oc3ccc(C(=O)N4CCOCC4)cc32)c1	.	2	.	.	-0.2
Cn1nc(CSc2ccccc2)c(C=O)c1Cl	.	-4	9%	14	0.8
Cc1cc(NC(=S)NC(=O)CC(C)C)ccc1Br	-25	19	-17%	-1	0.4
O=S(=O)(c1ccc(Cl)cc1)N1CCCN(c2nc3ccc(Cl)cc3s2)CC1	.	-6	11%	.	-0.5
CCCCCCCCC(=O)N/N=C(\C)c1ccc(O)cc1O	-14	-2	6%	-36	0.6
COc1ccc(N(CC(=O)Nc2ccc(S(=O)(=O)N3CCCCC3)cc2)S(C)(=O)=O)cc1OC	-38	7	-1%	-2	1.8
CC1CCN(C(=O)COC(=O)Cn2cnc3c2c(=O)n(C)c(=O)n3C)CC1	.	-15	.	.	1.7
O=C(Cc1ccccc1)NCC(=O)N1CCC2(CC1)NCCc1[nH]cnc12	.	2	.	.	1.3
Cc1c(Cl)cccc1NC(=S)N1CC2CC(C1)c1cccc(=O)n1C2 (centres undefined)	-26	0	2%	-1	3.4
COCCCNC(=O)c1cc2cc3cc(OC)ccc3nc2o1	.	1	.	.	-5.5
C=CCn1c(Cc2ccc(OC(C)C)c(Cl)c2)nnc1SCC(N)=O	-10	-5	-7%	-3	0.5
Cc1cc2c(C)nc(N/N=C/c3ccc([N+](=O)[O-])cc3)nc2o1	-10	-3	6%	-5	-0.7
COc1ccc(C2CC(C(F)(F)F)n3nc(C(=O)Nc4c(C)n(C)n(-c5ccccc5)c4=O)c(Cl)c3N2)cc1 (centres undefined)	-17	-9	-9%	7	0.0
O=C(CN1CCCCC1)Nc1ccc(N2CCCCCC2)cc1	.	7	4%	-25	6.2
CCCN(CCC)CC(O)CN(c1ccccc1)S(=O)(=O)c1ccc(C)cc1 (centres undefined)	-16	-1	-6%	-5	.
C=C(C(=O)Nc1ccccc1)c1ccc(C)cc1	.	-2	.	.	0.4
O=S(=O)(c1ccccc1)N1CCC(Oc2ccc(-n3cnnn3)cc2)CC1	.	-3	.	.	-1.4
O=C(Cc1cccc(C(F)(F)F)c1)Nc1ccccc1N1CCCC1	.	-5	.	.	-0.6
COc1ccc(C(=O)Nc2ccc(-c3n[nH]c(=S)o3)cc2)cc1	.	85	.	.	11
Cc1ccc(S(=O)(=O)Nc2nnc(C(C)(C)C)s2)cc1	.	-2	.	.	-0.7
Cc1ccccc1OCCCC(=O)NCc1ccco1	-18	-11	-3%	-5	-0.8
O=C(CCN1C(=O)C2C3C=CC(C3)C2C1=O)NCCc1ccccc1Cl (centres undefined)	-24	-9	0%	1	7.4
CCC(C)N(C(=O)CSc1nnc(-c2ccco2)n1C)C1CCS(=O)(=O)C1 (centres undefined)	.	-3	.	.	-0.4
Cn1c(=O)c2c(nc(Cl)n2CC(=O)N2CCCCC2)n(C)c1=O	.	-13	-1%	-1	-1.3
(continued)
SMILES	YopH inh	Mtb bLac sens	Mtb H37Rv	Arbovirus anti	RecA intein inh	others
O=C(CCCN1C(=O)/C(=C\c2cccs2)SC1=S)NNC(=O)c1ccncc1	.	1	?	-2	2.5
O=C(CCc1ccccc1)NNC(=O)Nc1ccc(F)c(Cl)c1	.	5	.	.	3.0
O=C(COc1ccccc1)N1CCN(S(=O)(=O)c2ccc(Br)cc2)CC1	.	5	.	.	-4.8
CCc1nc2sc3c(O)cc(=O)[nH]c3c2cc1C	.	2	-6%	-7	-7.4
O=C(O)CCN1C(=O)C2CCCCC2C1=O (centres undefined)	25	-3	-11%	-1	0.8
CCOc1ccc(S(=O)(=O)NC2CC2)cc1C(N)=O	.	1	-5%	3	-1.2
COc1cc(C2CC(=O)c3c(O)cc(O)cc3O2)ccc1O (centres undefined)	.	-1	6%	9	1.9
CCOc1ccc(C(=O)Nc2cc(NC(=O)c3ccc(OCC)c(Cl)c3)cc(C(=O)O)c2)cc1Cl	.	.	6%	88*	-0.4
CCN1/C(=C\C=C2\C(=O)N(C)C(=S)N2C)Sc2ccccc21	.	6	16%	-6	-0.3
CCN1C(=O)/C(=C\N(C)C)S/C1=N\S(=O)(=O)c1ccccc1	.	-4	0%	6	1.1
CCc1cc(=S)n2c([nH]c3ccccc32)c1C#N	.	-4	-2%	13	-17
COc1ccccc1CNC(=O)c1cnn2c(C(F)F)cc(C)nc12	-6	-1	-9%	2	1.8
COc1ccsc1NC(=O)OCc1ccc(Cl)cc1	.	-7	.	.	-3.3
O=C(NN1C(=O)C2C(C1=O)C1C=CC2C12CC2)c1ccncc1 (centres undefined)	-26	.	38%	7	-1.7
CC(OC(=O)c1cc[n+]([O-])cc1)C(=O)NCc1ccccc1 (centres undefined)	.	-1	.	.	-2.8
Cc1ccc([N+](=O)[O-])cc1NC(=O)CNC1CCCCC1	.	7	.	.	-5.3
CC(C)c1ccc(/C=N/n2cnnc2)cc1	.	4	-1%	.	1.8
CCS(=O)(=O)N1CCCC(C(=O)NC2CCCC2)C1 (centres undefined)	-50	-7	-1%	8	-0.5
Cc1cccc(CCNC(=O)c2cc(=O)[nH]c3ccc(Br)cc23)c1	-31	-2	-5%	0	-1.0
COCCNC(=O)C1CC(c2cccc(F)c2)=NO1 (centres undefined)	.	-10	-9%	.	-2.7
O=S(=O)(Nc1c(F)cccc1F)c1ccc2c(c1)OCCO2	.	0	.	.	-1.2
CCn1cc(CN2CCC(C(=O)Nc3cccc(-c4cscn4)c3)CC2)cn1	.	?	.	.	4.0
O=C(NCc1cccs1)C(Cc1ccccc1)NS(=O)(=O)c1cccs1 (centres undefined)	-24	-6	-6%	-3	1.0	Arbovirus anti repeat=-2
O=C(Nc1ccc(N2CCOCC2)cc1N1CCOCC1)c1cccs1	-5	-4	-1%	-2	0.1
CCOC(=O)c1[nH]c2ccc(OC)cc2c1NC(=O)c1ccc(OC)c(OC)c1	-20	-4	7%	0	5.4

The list goes on; the last seven above are carried over.
SMILES	YopH inh	Mtb bLac sens	Mtb H37Rv	Arbovirus anti	RecA intein inh	others
Cc1cccc(CCNC(=O)c2cc(=O)[nH]c3ccc(Br)cc23)c1	-31	-2	-5%	0	-1.0
COCCNC(=O)C1CC(c2cccc(F)c2)=NO1 (centres undefined)	.	-10	-9%	.	-2.7
O=S(=O)(Nc1c(F)cccc1F)c1ccc2c(c1)OCCO2	.	0	.	.	-1.2
CCn1cc(CN2CCC(C(=O)Nc3cccc(-c4cscn4)c3)CC2)cn1	.	?	.	.	4.0
O=C(NCc1cccs1)C(Cc1ccccc1)NS(=O)(=O)c1cccs1 (centres undefined)	-24	-6	-6%	-3	1.0	Arbovirus anti repeat=-2
O=C(Nc1ccc(N2CCOCC2)cc1N1CCOCC1)c1cccs1	-5	-4	-1%	-2	0.1
CCOC(=O)c1[nH]c2ccc(OC)cc2c1NC(=O)c1ccc(OC)c(OC)c1	-20	-4	7%	0	5.4
Nc1nc(SCC(=O)NCC2CCCO2)n[nH]1 (centres undefined)	-3	-6	5%	4	-0.2
O=C(NCc1ccccc1C(F)(F)F)C1CC(c2cc(C(F)(F)F)cc(C(F)(F)F)c2)=NO1 (centres undefined)	.	1	-3%	.	3.0
CCCC1(CCC)NC(=O)N(CC(=O)N2CCN(C(=O)c3ccco3)CC2)C1=O	-17	-8	3%	0	-3.2
Cc1cccc(Nc2nc(N3CCOCC3)nc(N3CCOCC3)n2)c1	.	24	.	.	1.1
O=C1/C(=C/c2ccncc2)SC(=S)N1C1CCCCC1	-26	3	3%	17	7.5
O=C(O)c1cc(-c2c[nH]c3ccccc23)nc2ccc3ccccc3c12	.	-1	2%	22	-8.5
Cc1cccc(NC(=O)CSc2nc3[nH]ncc3c(=O)n2-c2ccccc2)c1	-8	1	-1%	1	1.8
O=C(CSc1nnc(NC(=O)c2ccco2)s1)Nc1ccccc1	.	-1	0%	8	-0.2
COCCSc1nnc(NC(=O)Cc2ccc(OC)cc2)s1	.	-3	6%	1	-1.1
c1ccc(N2CCN(C3CCSC3)CC2)cc1 (centres undefined)	-25	-1	-2%	1	1.2	Arbovirus anti repeat=3
COc1ccc(-c2nc3cccc(C)n3c2NCC2CCCO2)cc1O (centres undefined)	.	-11	-4%	0	-103
CCOc1ccc(S(=O)(=O)Nc2cccc(C(=O)N3CC(C)OC(C)C3)c2)cc1 (centres undefined)	.	-1	.	.	0.1
O=S(=O)(Cc1ccccc1)N1CCN(C/C=C/c2ccccc2)CC1	8	?	0%	5	2.5
CCCC(=O)N(CCN1CCOCC1)c1nc2ccc(OCC)cc2s1	.	-1	.	.	-0.6
CCCN(CC(=O)Nc1ccccc1Br)CC(=O)Nc1ccc(F)c(F)c1F	-13	4	0%	-7	3.8
CCOC(=O)c1nn(-c2ccccc2)c(=O)cc1OCC(=O)Nc1ccccc1OCC	.	-2	.	.	-0.3
CC(=O)N/C(=C\c1ccc(C)cc1)C(=O)O	.	-5	5%	5	-0.7
O=C(NCc1ccccn1)C(=O)N/N=C/c1ccccc1O	.	-7	-5%	.	-4.1
CC(=O)c1cn(CC(=O)NCc2cccnc2)c2ccccc12	19	-4	6%	0	-1.7
COCCOC(=O)c1c(NC(=O)CNCc2ccco2)sc(C(N)=O)c1C	.	-7	-5%	7	-1.2
Cc1ccc2c(CC(=O)NC3=NCCS3)coc2c1	-34	1	-13%	9	.
Nc1ncc([N+](=O)[O-])cc1Br	.	-5	7%	.	-0.3
CC(=O)c1ccc(OCC(O)CN2CCOCC2)cc1 (centres undefined)	.	1	1%	5	0.2	Arbovirus anti repeat=2
COc1ccc(/C=C(\CC(=O)O)c2nc3ccccc3s2)cc1O	.	-2	-1%	0	-1.4
CC(=O)NC1=NN(C(C)=O)C(C)(CC(=O)OC(C)(C)C)S1 (centres undefined)	.	10	-13%	-3	-1.2

Bioassay records: PubChem, several laboratories
